Screens deposited in PubChem by several laboratories.
HNF4A DNA FP: change in binding of human HNF4A to DNA, primary screen, biochemical, fluorescence polarization, FITC-DNA | Hepatocyte nuclear factor 4-alpha (Homo sapiens), P41235 | 1 h | activity change, % at 10 µM | actives 0.3% (n = 360,000); in the data active = activity change above about 30%, passing the limit was not always enough;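 note: controls were the assay level and a saturating level of protein; the project sought stronger binding though the title names inhibitors; some compounds called inactive have numbers as strong as hits; positive values seem to mean higher polarization but the record does not say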
A1 inh: caspase 3/7 activation in MEF A1-2A-BIM cells, primary screen, A1 inhibitor project, cell-based, luminescence, HTS | Caspase-Glo 3/7 luminescence, 3 h; percent of clofoctol response, vehicle zero | caspase activation, % (no concentration beside the values) | actives 0.066% (n = 330,000);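 active = over half of replicate activation scores above 10%, or exactly half above 10 with the replicate mean above 10; inconclusive = replicate mean below 10 yet half the replicates above 10; inactive = over half of replicates below 10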;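 note: wells of about 30 µL received 50 nL stock; many hits fall short of the cut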
LANA-H2A inh: blockers of LANA interaction with H2A/H2B – biochemical, FP readout, HTS, primary screen; Protein LANA1 (Human herpesvirus 8 type P (isolate GK18)), Q9QR71; cell-free LANA-H2A/H2B peptide, fluorescence polarization; inhibition, % (concentration not given with the values); actives 0.6% (n = 320,000); AID 2629, 2010; in the data active = inhibition mostly above about 10%, no sharp cut-off; inactive = mostly below about 6.7%;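 note: stock transfer was 7.5 nL into about 10 µL; 0% = median of vehicle wells and 100% = median of positive control wells; one replicate is shown; the record names a cut of 25% in any replicate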
Target sequence (Q9QR71 whole entry, looked up): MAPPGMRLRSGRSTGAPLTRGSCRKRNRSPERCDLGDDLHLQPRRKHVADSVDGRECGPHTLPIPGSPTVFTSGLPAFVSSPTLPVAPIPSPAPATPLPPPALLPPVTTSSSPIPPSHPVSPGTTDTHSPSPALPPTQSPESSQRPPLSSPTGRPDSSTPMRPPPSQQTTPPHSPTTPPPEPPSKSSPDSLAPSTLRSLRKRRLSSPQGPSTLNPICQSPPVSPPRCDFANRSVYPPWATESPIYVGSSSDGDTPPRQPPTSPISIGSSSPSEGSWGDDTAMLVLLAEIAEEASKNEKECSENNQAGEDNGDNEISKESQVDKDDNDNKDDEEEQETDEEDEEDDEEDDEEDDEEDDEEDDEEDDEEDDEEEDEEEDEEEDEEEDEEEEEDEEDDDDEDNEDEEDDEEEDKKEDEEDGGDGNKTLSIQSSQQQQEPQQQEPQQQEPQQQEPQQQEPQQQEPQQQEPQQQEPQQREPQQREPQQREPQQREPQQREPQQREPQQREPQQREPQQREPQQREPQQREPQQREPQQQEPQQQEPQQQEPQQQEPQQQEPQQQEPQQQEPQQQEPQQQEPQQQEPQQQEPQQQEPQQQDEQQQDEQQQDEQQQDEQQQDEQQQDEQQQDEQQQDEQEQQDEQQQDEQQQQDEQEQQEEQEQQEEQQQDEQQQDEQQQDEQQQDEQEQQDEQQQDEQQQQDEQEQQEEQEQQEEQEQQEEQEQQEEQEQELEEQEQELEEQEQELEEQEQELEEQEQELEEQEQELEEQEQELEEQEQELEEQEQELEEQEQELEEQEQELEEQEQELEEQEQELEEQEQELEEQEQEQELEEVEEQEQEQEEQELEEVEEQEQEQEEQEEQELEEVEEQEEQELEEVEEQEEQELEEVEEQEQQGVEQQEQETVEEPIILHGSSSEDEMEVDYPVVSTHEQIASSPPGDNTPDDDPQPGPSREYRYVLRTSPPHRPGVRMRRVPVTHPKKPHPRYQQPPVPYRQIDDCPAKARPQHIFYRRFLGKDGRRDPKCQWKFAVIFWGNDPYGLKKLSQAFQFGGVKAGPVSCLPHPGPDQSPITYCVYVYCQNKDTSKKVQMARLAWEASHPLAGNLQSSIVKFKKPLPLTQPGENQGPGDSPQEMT
Vif TR-FRET: inhibitors of Vif binding to APOBEC3G peptide, primary screen, biochemical, TR-FRET, GST-Vif 1-94, biotin-A3G peptide, dose response retest (AID 1117319) | Virion infectivity factor (Human immunodeficiency virus type 1 group M subtype B (isolate … | TR-FRET GST-Vif / biotin-A3G peptide binding; higher % means a stronger effect; test concentration not given here; strong numbers were not always called active | inhibition, %, or IC50 in µM where a hit was titrated | actives 0.57% (n = 260,000);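 active = above the screen mean plus three standard deviations and confirmed in dose response; inconclusive = results disagree or hit not tested in dose response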;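 note: Vif residues 1-94 fused to GST binding biotinylated APOBEC3G peptide 110-148; 0% = full assay without inhibitor and 100% = GST in place of GST-Vif; retest series ran down from 100 µM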
UCH37 DUB inh: inhibitors of human UCH37 deubiquitinase, primary screen, biochemical, Ub-AMC cleavage, fluorescence. Ubiquitin carboxyl-terminal hydrolase isozyme L5 (Homo sapiens), Q9Y5K5. purified proteasome/UCH37. inhibition, % (test concentration not listed). actives 0.33% (n = 330,000);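 active = mean of two replicates above 20%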;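 note: 0% = compound-free wells with enzyme and 100% = wells lacking proteasome; stock transfer was 100 nL into about 20 µL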
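system = Proteasome-associated human UCH37 deubiquitinase | amount = 0.15 nM proteasome as dispensed | medium = pH 7.4 Tris-HCl (50 mM) with ovalbumin, ATP-MgCl2, DTT | incubation = 30 min preincubation with enzyme, 25 min cleavage at room temperature | detection = AMC fluorescence 355/460 nm | read-out basis = percent inhibition | controls = no-proteasome and no-compound wells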
Beta2AR agonist: beta2AR agonists driving receptor internalization, primary screen, cell-based, FAP fluorogen, flow cytometry | Beta-2 adrenergic receptor (Homo sapiens), P07550 | Am2.2-beta2AR cells; reference of the scale not given here | response, % (test concentration not listed) | actives 0.43% (n = 340,000) | AID 504454, 2011;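 active = response above a set limit, near 3 SD of response in nonfluorescent compounds, cut at about 42% in these data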;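 note: stock transfer was 100 nL into about 11 µL; a reference agonist was the positive control; negative values mostly stem from fluorescent compounds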
E coli growth: E. coli growth inhibition, primary screen, OD600. Escherichia coli growth, 23 h; hits give low values. OD600 absorbance (test concentration not listed). actives 0.21% (n = 330,000). AID 1053175, 2014;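 active = OD600 absorbance below the run mean of sample wells minus 3.6 SD, in any replicate, cut at about 0.56 in these data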;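 note: stock transfer was 300 nL into about 60 µL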
* marks the source's active call; other numbers are inactive results; i = inactive; ? = inconclusive; . = not tested or not shown; & = joins results of further samples. Rows are unselected; about 2.1% have a hit in one of these screens.

SMILES | HNF4A DNA FP | A1 inh | LANA-H2A inh | Vif TR-FRET | UCH37 DUB inh | Beta2AR agonist | E coli growth
COc1ccc(NC(=O)c2nnn(CC(=O)Nc3ccc4c(c3)OCO4)c2N)c(OC)c1 | 1.4 | -0.5 | 3.6 | -5% | -3.0 | 3 | 0.63
COc1ccccc1CN1CCSCC1 | -1.3 | 0.7 | -0.8 | -3% | 2.3 | -8 | 0.69
CCN(CC)CCN(C(=O)c1ccc(S(=O)(=O)N(C)C2CCCCC2)cc1)c1nc2c(C)cccc2s1 | -2.8 | -0.6 | -3.8 | 2% | -1.5 | -3 | 0.75
CCCc1cc(=O)[nH]c(Nc2ccc(Cl)cc2)n1 | 2.7 | -0.3 | -0.2 | . | 0.6 | 5 | 0.57
O=C(Cc1cccc2ccccc12)Nc1ccc(N2CCOCC2)cc1 | -1.2 | -0.2 | -2.4 | . | 1.8 | 2 | 0.67
O=C(O)C1CC(=O)N(c2ccc(OCc3ccc(Br)cc3)cc2)C1 (stereo not drawn) | -3.6 | 0.0 | -2.5 | . | . | 2 | .
Cc1ccc(NC(=O)CCNS(=O)(=O)c2cccc3nonc23)cc1Cl | -1.7 | 0.5 | 1.8 | 7% | 2.6 | 3 | 0.69
CCN(CC)S(=O)(=O)c1ccc(C)c(NS(=O)(=O)c2cc(/C=C/C(=O)O)cc(OC)c2OC)c1 | 2.8 | 0.4 | -5.0 | 8% | 3.6 | 1 | 0.7
CN(C)S(=O)(=O)c1cc(NC(=O)c2cc(=O)[nH]c3ccccc23)ccc1Cl | . | -0.1 | -2.2 | 20% | -4.4 | . | 0.67
CCOc1cc2c(cc1/C=C(/C#N)c1ccc(C(=O)O)cc1)OCO2 | -1.8 | 0.2 | 0.9 | 12% | 6.3 | 3 | 0.66
CC1CCOC2(O1)C(=O)Nc1ccccc12 (stereo not drawn) | -0.2 | 0.3 | 4.6 | -1% | 0.6 | -6 | 0.68
Cc1ccc(NC(=O)c2nc[nH]c2C(=O)N[C@@H](C)c2ccccc2)cc1 | -3.2 | 1.7 | 0.8 | -1% | -1.0 | 12 | .
COc1ccc2c(c1)CCc1c(C(=O)N3CCCc4ccccc43)noc1-2 | 1.6 | 0.6 | 7.2 | -7% | 0.5 | -7 | 0.7
CCc1cccc(CC)c1NC(=S)NCC(c1cccnc1)N1CCOCC1 (stereo not drawn) | -1.4 | -0.4 | -3.0 | . | 2.7 | 0 | 0.66
CC(C)(C)c1ccc(C(=O)NC(=S)N2CCCCCC2)cc1 | -2.5 | 0.3 | 1.7 | -3% | 3.5 | 0 | 0.71
COc1ccc(S(=O)(=O)NC2CC3CCC2C3)cc1Br (stereo not drawn) | -0.3 | 0.4 | -3.7 | -7% | 0.1 | -5 | 0.68
COc1ccc(-n2nc3c(c2NC(=O)C(C)C)CSC3)cc1 | 1.9 | -0.4 | 2.2 | . | 1.7 | 3 | 0.71
O=C(NCC(c1ccco1)N1CCOCC1)c1cccc([N+](=O)[O-])c1 (stereo not drawn) | 0.2 | 0.4 | -1.2 | ? | 1.9 | -9 | 0.71
CCOC(=O)Nc1ccc2c(c1)C(=NNC(N)=S)c1ccccc1-2 | -2.3 | . | . | -7% | 2.8 | 17 | 0.69
COc1ccc(-n2c(CCc3ccccc3)nnc2SCC(=O)c2ccc(Cl)cc2)cc1 | 0.0 | 0.8 | 1.2 | . | -2.6 | -10 | 0.7
CC(=O)c1ccc(OCC(O)CN2CCN(CCN3C(=O)c4cccc5cccc(c45)C3=O)CC2)cc1 (stereo not drawn) | -0.5 | 0.1 | -8.4 | ? | . | -3 | .
CC1CCN(c2nc3c(c(=O)[nH]c(=O)n3C)n2Cc2ccccc2)CC1 | -1.1 | 1.2 | 4.8 | 11% | 3.9 | 1 | 0.74
O=C(CCSCCC(=O)NCC1CCCO1)NCC1CCCO1 (stereo not drawn) | -0.6 | 0.9 | -2.6 | -1% | 4.1 | -5 | 0.7
COc1ccc(S(=O)(=O)N(C)CC(=O)NCCN2CCOCC2)cc1Cl | 0.5 | -0.2 | 23 | . | 1.1 | 1 | 0.7
C#CCSc1nc(C)cc(C(=O)OCC)c1C#N | 0.1 | 0.2 | -1.6 | -3% | -0.7 | 4 | 0.65

A different layout for some results above.
Results follow in this order: HNF4A DNA FP	A1 inh	LANA-H2A inh	Vif TR-FRET	UCH37 DUB inh	Beta2AR agonist	E coli growth
- COc1ccc(-n2nc3c(c2NC(=O)C(C)C)CSC3)cc1
    1.9	-0.4	2.2	.	1.7	3	0.71
- O=C(Cc1cccc2ccccc12)Nc1ccc(N2CCOCC2)cc1
    -1.2	-0.2	-2.4	.	1.8	2	0.67
- Cc1ccc(NC(=O)c2nc[nH]c2C(=O)N[C@@H](C)c2ccccc2)cc1
    -3.2	1.7	0.8	-1%	-1.0	12	.

Other records
SMILES | HNF4A DNA FP | A1 inh | LANA-H2A inh | Vif TR-FRET | UCH37 DUB inh | Beta2AR agonist | E coli growth
CCc1ccc(CNCCNCC(C)O)cc1 (stereo not drawn) | -0.9 | 0.4 | -10 | 1% | 3.5 | -3 | 0.64
CCOn1c(=O)c(-c2ccc(OC)cc2)[n+]([O-])c2ccccc21 | -0.8 | 0.0 | -2.1 | -3% | 7.8 | 3 | 0.76
O=C(C[C@H]1C/C=C\CCCC(=O)OC[C@H]2CCCN2C1=O)NCCO | -6.5 | 0.1 | -0.5 | . | -0.1 | 2 | .
CCOC(=O)C1CCN(C(=O)c2cc3c(ccc4ccccc43)o2)CC1 | -0.4 | -3.3 | -2.9 | . | 0.4 | 11 | 0.7
O=C(NCC(=O)N(Cc1cccs1)C(C(=O)NC1CCCCC1)c1ccco1)c1ccco1 (stereo not drawn) | -2.5 | 1.4 | 1.3 | 5% | 3.6 | -5 | 0.7
Cc1ccnc(NS(=O)(=O)c2cnc(Cl)c(Br)c2)c1 | -4.1 | 0.2 | -3.1 | 17% | . | -2 | .
Cc1ccccc1Nc1ncccc1C(=O)N1CCOCC1 | 1.4 | 0.9 | -0.5 | ? | -0.3 | -4 | 0.69
Nc1nc(SCCN2C(=O)c3ccccc3C2=O)n[nH]1 | -0.7 | 0.4 | 0.0 | 8% | -1.1 | -4 | 0.68
O=C(Nc1c[nH]c(=O)[nH]c1=O)c1cccc([N+](=O)[O-])c1 | -1.4 | 1.7 | -0.3 | 6% | 1.8 | 5 | 0.64
CC(C)CN(C(=O)COC(=O)c1c(Cl)ccc(Cl)c1Cl)C1CCS(=O)(=O)C1 (stereo not drawn) | -3.7 | -0.1 | 2.0 | -7% | 0.2 | -5 | 0.69
CC1C2=C(CC(C)(C)CC2=O)NC2=C1C(=O)CC(C)(C)C2 | 2.6 | 0.7 | 1.2 | -1% | i | -8 | 0.7
Cc1cc(NC(=O)c2ccc(NC(=O)C(C)Oc3ccccc3)cc2)no1 (stereo not drawn) | -1.1 | -0.1 | 8.9 | 31% | 2.3 | -1 | 0.7
COCCCN1C(=O)c2ccc(C(=O)OCC(=O)N(C)c3ccccc3)cc2C1=O | 0.9 | -0.8 | 0.0 | 6% | 4.3 | -1 | 0.68
CCCc1nnc(NC(=O)CCC(=O)N2CCC(Cc3ccccc3)CC2)s1 | -1.8 | 0.2 | -8.1 | . | 2.1 | -3 | 0.68
CCOc1ccccc1N1CCN(CC(=O)Nc2nnc(CC)s2)CC1 | -2.3 | -1.2 | 3.1 | ? | 1.2 | -3 | 0.68
O=C(CSc1nc2ccccc2o1)Nc1ccccc1 | 1.4 | 0.6 | -1.8 | 8% | 5.6 | -1 | 0.6
CCc1ccc(S(=O)(=O)NCCc2csc(-c3ccccc3)n2)s1 | -1.2 | 0.4 | 4.7 | -7% | 3.0 | 9 | 0.69
COc1ccc(CN2C(=O)C(Cc3ccccc3)Nc3ncnc(N4CCOCC4)c32)cc1 (stereo not drawn) | 4.8&1.3 | 1.5 | 0.6 | . | 0.0 | 5 | 0.72
CN(C)CCN(Cc1ccco1)C(=O)c1oc2ccccc2c1NC(=O)COc1ccccc1 | 6.7 | 0.0 | 4.0 | -1% | 0.0 | -13 | 0.68
Cc1nnc(NC(=O)C2=COCCO2)s1 | -0.9 | 0.3 | . | 4% | 0.8 | -5 | 0.69
CC(C)(C)C(=O)/C=C(\N)c1ccccn1 | 1.0 | -0.4 | 7.5 | 2% | 10 | 3 | 0.69
COc1ccc(NC(=O)CSc2nnnn2C)cc1 | -0.7 | -0.5 | 0.6 | 0% | 0.9 | -2 | 0.73
COc1ccc(NC(=O)CNC(=O)c2c(C)nn(C)c2Cl)cc1 | -2.9 | 1.1 | . | -16% | 4.7 | -2 | 0.69
N=c1c(C(=O)NCCN2CCOCC2)cc2c(=O)n3ccccc3nc2n1CCc1ccccc1 | 2.4 | -0.5 | -5.2 | . | . | -14 | .
Cc1cc2c(Nc3ccc(O)cc3)ncnc2s1 | 1.2 | -0.4 | 1.4 | 0% | 5.6 | 13 | 0.68
The list goes on.
SMILES | HNF4A DNA FP | A1 inh | LANA-H2A inh | Vif TR-FRET | UCH37 DUB inh | Beta2AR agonist | E coli growth
Cc1ccc(-c2nnc(SCC(=O)CC(=O)Nc3ccccc3)n2-c2ccccc2)cc1 | -1.1 | 0.2 | 0.4 | 22% | 3.4 | -10 | 0.74
COc1ccc(N(C(=O)c2ccc(F)cc2)C2=CC3CCC(C2)N3C)cc1 (stereo not drawn) | -4.0 | 0.2 | -3.7 | 0% | 2.5 | 5 | 0.7
COc1ccc(CCNC(=O)c2ccc(CN3CCC(Cc4ccccc4)CC3)cc2)cc1OC | -1.9 | 1.1 | -0.3 | . | 0.7 | 11 | 0.68
CCN(CC)S(=O)(=O)c1cc(NC(=O)C(C)N(C)CC(=O)Nc2c(C)cccc2C)ccc1C (stereo not drawn) | -0.9 | 0.0 | 6.2 | -6% | 1.2 | 3 | 0.68
COc1ccccc1NCCC(=O)OCC(=O)NC1CCCCCC1 | 1.8 | 0.0 | 1.5 | . | 0.6 | -1 | 0.7
Cc1nc2cc(NS(=O)(=O)c3ccccc3F)ccc2s1 | 1.2 | 1.0 | 1.6 | 3% | 2.3 | -3 | 0.69
CCOc1ccc2nnc(-c3ccc(Br)cc3)n2n1 | -4.3 | -0.1 | 6.3 | 26% | -4.4 | -8 | 0.71
O=C(NNc1cc(Br)c(O)c(Br)c1)c1ccccc1 | 3.1 | ? | 3.3 | -3% | 3.8 | 7 | 0.52
Cc1ccc2c(c1)NC(=O)C(CC(=O)Nc1ccc(CN3CCC(C)CC3)cc1)O2 (stereo not drawn) | 2.7 | 0.5 | -7.0 | 13% | 2.7 | 12 | 0.79
COc1ccc(-c2cc(C#N)nc(N3CCNCC3)n2)cc1 | 43* | ? | -5.3 | 28% | -28 | 4 | 0.65
CCN(CC(=O)NCCN1CCOCC1)S(=O)(=O)c1ccc(F)cc1 | -1.9 | 0.0 | 1.9 | . | 1.3 | 2 | 0.68
O=C(N/N=C/c1ccc(OCc2ccc(F)cc2)cc1)c1ccccc1 | -1.5 | 0.8 | 1.4 | -4% | . | 1 | .
COc1ccccc1C1=NOC(CN2C(=O)c3ccccc3S2(=O)=O)C1 (stereo not drawn) | -1.0 | -0.3 | -3.9 | 22% | 1.8 | -11 | 0.68
S=C(NCc1ccco1)Nc1ccccc1Cl | -0.8 | -0.5 | 4.6 | 7% | 2.3 | 21 | 0.64
